AID504770 = growth inhibition of E. coli YBA685, primary screen, V. cholerae RctB inhibitors. E. coli YBA685 rctB-dependent plasmid, OD600 growth, 3 h; stronger effect = lower value. z-score (no concentration beside the values). actives 0.27% (n = 130,000). AID 504770, 2011;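 active = z-score under -2 on both plates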;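 note: wells of about 30 µL received 100 nL stock; score is relative to mean and SD of the test wells; the first replicate is given; strong numbers were not always called active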
Ba CapD inh = Bacillus anthracis CapD inhibitors, primary screen, biochemical, fluorescence intensity; z-score (no concentration beside the values); purified CapD enzyme, fluorescence intensity read-out; stronger effect = lower value; some hits fall short of the stated cut; CapD gamma-glutamyltranspeptidase (Bacillus anthracis Ames Ancestor); actives 0.23% (n = 140,000);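 active = z-score under -4 in either of two replicates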;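 note: stock transfer was 100 nL into about 40 µL; score is relative to mean and spread of the plate; one replicate is shown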
Starred values were filed as active, the others as inactive; . = no result given; & = joins results of further samples.

Values in the order – AID504770	Ba CapD inh
O=C(O)C1CCCCC1C(=O)N1CCCC1 (stereo not given)
 : -0.3	0.39
C#CCOC(=O)c1ccc(CSc2ccc(Cl)cc2)o1
 : 1.7	0.09
CC1=NN(c2ccccc2)C(=O)C(C=C2C(=O)N(C)C(=S)N(C)C2=O)C1 (stereo not given)
 : 0.7	-0.69
CC(=O)Nc1ccc(S(=O)(=O)N2CCN(C(=O)c3ncoc3-c3ccccc3)CC2)cc1
 : -0.3	.
c1ccc2sc(NN=C3CCCC3)nc2c1
 : -1.1	1.7
COc1ccc(C=Nc2cccc(Cl)c2)cc1
 : -1.2	7.6
O=C(CSc1oc(-c2ccccc2)nc1S(=O)(=O)c1ccc(Cl)cc1)NCC1CCCO1 (stereo not given)
 : -0.6	0.15
COC(=O)c1c(Cn2cc(Br)ccc2=O)nc2ccccc2c1C
 : -0.05	.
Cc1cc(OC(=O)c2ccccc2Cl)n(CCC#N)n1
 : -0.15	.
CC1=C(C(=O)Nc2ccccc2C(=O)NC(C)(C)C)SCCO1
 : -0.35	-0.55
Cc1nn(C)c(C)c1NS(=O)(=O)c1cc(C(F)(F)F)cc(C(F)(F)F)c1
 : .	0.11
CCOC(=O)Oc1ccc2c(=O)c(Oc3ccc(OC)cc3)c(C(F)(F)F)oc2c1
 : .	0.22
COc1ccc(Cl)cc1NC(=O)CCN1CCN(c2ccccc2C)CC1
 : 0.15	-0.1
COc1ccc(/C=C2\CC/C(=C\CC(C)C)C2=O)cc1Br
 : -0.1	-1.1
O/N=C/N=C(NOCc1c(F)cccc1Cl)c1ccc(Cl)cc1
 : .	-0.04

Later entries.
Values in the order – AID504770	Ba CapD inh
O=S(=O)(c1ccccc1)c1cccn1-c1ncc(C(F)(F)F)cc1Cl
 : .	0.05
CN1C2CCC1CC(NC(=O)Nc1ccc(Br)cc1)C2 (stereo not given)
 : 0.1	0.73
CC(C)CC(c1nnnn1C1CCCC1)N1CCC(C(N)=O)CC1 (stereo not given)
 : 0.05	.
CCn1c2ccccc2c2cc(N=Cc3cc(C)n(-c4cccc(S(=O)(=O)N5CCOCC5)c4)c3C)ccc21
 : -0.7	.
CCn1c(C)cc2c(c1=O)C(c1cccc(OC)c1)C(C(=O)OC)=C(N)O2 (stereo not given)
 : 1.5	.
CCCc1cc(=O)oc2cc(OC(C)C)c(Cl)cc12
 : 0.65	7.1
O=C1CCCN2N=C(SCC(=O)Nc3nc4ccccc4s3)SC2=N1
 : 0.35	.
O=C1/C(=C/c2ccc(Cl)cc2)COc2ccc(F)cc21
 : .	-0.56
O=C(O)Cn1cnc(-c2ccc(F)cc2)c1
 : -0.9	-0.18
O=C(c1ccc2c(c1)OCCO2)N1CCOCC1
 : .	0.23
CCCCCOc1ccc(O)cc1
 : -0.7	.
C=CCOC(=O)C1=C(C)NC(C)=C(C(=O)OCC=C)C1c1cn(-c2ccccc2)nc1-c1ccc([N+](=O)[O-])cc1
 : .	-0.78
CCC(C)C(=O)N1c2ccccc2C(N(C(=O)c2cccc(Cl)c2)c2ccccc2)CC1C (stereo not given)
 : .	-0.78
COC(=O)c1ccc(NC(=O)CCNCc2ccco2)cc1
 : -0.6	.
CS(=O)(=O)Cc1nc2ccccc2oc1=O
 : -0.9	.

Following part.
Values in the order – AID504770	Ba CapD inh
CCOC(=O)c1cccc(NC(=O)Cc2noc3ccccc23)c1
 : 0	-1.2
Cc1nn(-c2ccccc2)c(C)c1/C=C/C(=O)OCn1nnc2ccccc2c1=O
 : 1.2	.
Cn1c(=O)c2cc(C(=O)NCc3cccs3)sc2c2ccccc21
 : -0.1	0.33
Clc1cc(Cl)c2nsnc2c1
 : -1.2	.
CCOC(=O)c1c(C)oc2c(Cl)cc(NS(=O)(=O)c3ccc(C)cc3C)cc12
 : .	0.79
CN(C)/C=C(\C#N)S(=O)(=O)c1cccs1
 : .	-0.67
COc1cc(/C=C2\C(=O)NC(=S)N(c3ccc(C(C)(C)C)cc3)C2=O)ccc1OCC(=O)O
 : .	-0.52
C=CCn1c(SCC(=O)Nc2ccccc2)nc2sc(C)c(C)c2c1=O
 : .	0.73
Cc1ccccc1CCOC(=O)NNC(=O)Cn1nnc(-c2cccc([N+](=O)[O-])c2)n1
 : .	-0.42
CC(C)(C)C(=O)NCCc1nc2ccccc2n1Cc1ccccc1F
 : -0.35	-0.56
O=C1N(CN2CCN(c3ccccc3)CC2)c2ccccc2C12OCCO2
 : .	0.39
NC(=O)c1ccccc1C(=O)O
 : .	-0.56
COc1ccc(-c2csc(=NCCO)n2-c2ccccc2)cc1
 : -0.35	-0.82
CC(C)(C)c1ccc(Oc2ccc(-c3nc(N)c(C#N)c(C#N)c3C#N)cc2)cc1
 : .	15
CC1(C)CC(=O)C2=C(C1)OC(N)=C(C#N)C2c1ccc(N2CCOCC2)c([N+](=O)[O-])c1 (stereo not given)
 : .	-0.54

Next part:
Values in the order – AID504770	Ba CapD inh
Cc1ccccc1-c1nc(CN2CCC(C(=O)NCCCN3CCCC(C)C3)CC2)c(C)o1 (stereo not given)
 : -0.05	-0.26
O=C(/C=C/c1cn(-c2ccccc2)nc1-c1ccccc1)OCC(=O)N1CCCC1
 : -0.9	2.5
NNC(=O)CNC(=O)c1cccnc1Oc1ccccc1
 : -0.85	-0.38
O=C(NC1CC1)C1CCN(c2nc3cccnc3s2)CC1
 : -2.9	-1.2
COc1ccc(-n2c(SCC(=O)c3ccc(O)cc3O)nc3ccccc32)cc1
 : 0.3	.
O=C(c1ccccc1CCc1ccccc1)N1CCOCC1
 : 0.75	0.55
CCCCc1ccc2nc3sc(C(=O)O)cc3cc2c1
 : -0.05	16
O=C(c1ccc(Oc2cc(Cl)cc(Cl)c2)o1)N1CCN(Cc2cccnc2)CC1
 : -0.35	-0.47
Clc1nc(CN2CCOCC2)nc2scc(-c3ccccc3)c12
 : 0.1	.
COc1cc(OC)c(C(=O)NCCCN2CCOCC2)cc1OC
 : 0.55	2.5
COCC(=O)Nc1ccc(Cl)cc1
 : -0.7	0.54
O=C(O)C12CC3CC(C1)CC(n1cnc(Cl)n1)(C3)C2
 : 1.8	0.035
Cc1cccc(COC(=O)N2CCN(Cc3ccccc3Sc3ccc(Cl)cc3)CC2)n1
 : .	-0.64
CCCN1CCN(C(=O)c2cn(Cc3ccccc3)nc2-c2ccccc2OC)CC1
 : -0.1	.
CCOC(=O)/C=C1\SCC(=O)N1CCCCN1C(=O)c2ccccc2C1=O
 : 0.6	.

Looked up by compound from the list above, three records:
Values in the order – AID504770	Ba CapD inh
CCOC(=O)/C=C1\SCC(=O)N1CCCCN1C(=O)c2ccccc2C1=O
 : 0.6	.
COc1cc(OC)c(C(=O)NCCCN2CCOCC2)cc1OC
 : 0.55	2.5
NNC(=O)CNC(=O)c1cccnc1Oc1ccccc1
 : -0.85	-0.38

Remaining list, next part
Values in the order – AID504770	Ba CapD inh
Cc1cccc(C(=O)NCc2c(C)c(C)n(Cc3ccccc3)c2-n2cccc2)c1
 : .	-0.1
Cc1c(C(=O)N(C)C2CCCCC2)cnn1-c1ccccc1
 : 0.5	-0.33
CC(=O)Nc1ccc(NC(=O)C2CC2(C)C)cc1 (stereo not given)
 : -1	-0.67
O=C(/C=C/c1ccccc1)NC1CCS(=O)(=O)C1 (stereo not given)
 : 0.2	0.09
O=C(O)CSC1CCS(=O)(=O)C1 (stereo not given)
 : -0.75	-0.02
Cc1oc(-c2cccc(Br)c2)nc1CN1CCC(C(=O)NCC2COc3ccccc3O2)CC1 (stereo not given)
 : 0.15	0.3
NC(=O)c1ccc(NC(=O)COc2coc(CN3CCc4ccccc43)cc2=O)cc1
 : 0.35	.
CC(=O)Oc1cccc(-c2nc3cc(C)ccc3o2)c1
 : 1.9	.
CCOC(=O)C1=C(C)N=c2s/c(=C/c3cc(Br)ccc3OC(C)=O)c(=O)n2C1c1ccccc1 (stereo not given)
 : .	-0.29
CCc1nc(N2CCCCC2)c(C#N)c2c1CCCC2
 : -0.25	1.8
O=C(Cc1ccccc1F)Nc1ccc(-n2cnnn2)cc1
 : -0.45	.
CCOC(=O)C1=C(CSc2nc(-c3cccs3)ccc2C#N)OC(N)=C(C#N)C1c1ccccc1I (stereo not given)
 : .	1.4
O=C1C(N2CCCCC2)=C(n2nnc3ccccc32)C(=O)c2ccccc21
 : -0.45	.
Cc1ccc(CN2CCS(=O)(=O)CC2)cc1
 : 1.6	-1.2
O=C(c1ccccc1N=Nc1c(O)[nH]c(=O)[nH]c1=O)N1CCOCC1
 : 0.85	.

More records.
Values in the order – AID504770	Ba CapD inh
NC(=O)c1cc(N)ccc1N1CCCCC1
 : 0.05	-0.34
N#Cc1ccc(COC(=O)C2CCCN2C2=NS(=O)(=O)c3ccccc32)cc1 (stereo not given)
 : -0.5	.
COCCn1c(=NC(C)=O)sc2cc(S(C)(=O)=O)ccc21
 : 2.1	0.1
O=C(NCC(c1ccc(F)cc1)N1CCOCC1)Nc1cccc(C(F)(F)F)c1 (stereo not given)
 : 0.3	.
O=C(Cn1c(=O)oc2cc(S(=O)(=O)NC3CCCC3)ccc21)Nc1nccs1
 : -0.3	0.18
CCOC(=O)c1sc(=S)n(CC)c1N
 : 0.55	-1.6
O=C(O)C1c2ccccc2C(=O)N(Cc2ccc(F)cc2)C1c1ccncc1 (stereo not given)
 : .	-0.38
CS(=O)(=O)c1ccc(CN(Cc2ccccn2)C(=O)c2ccccc2)cc1
 : .	-0.93
CC(C)(Oc1ccc(Cl)cc1)C(=O)OCC(=O)N1CCCC1
 : 0.15	.
Cc1ccc(NC(=O)c2ccccc2NC(=O)c2cccc(S(=O)(=O)N3CCCCCC3)c2)c(C)c1
 : .	-0.32
COCC1(C)OC(=O)C(C(=O)OC)=C1C (stereo not given)
 : .	0.14
CCOC(=O)/C(C#N)=C/Nc1cnc(N(C)C)c(C(F)(F)F)c1
 : -1.4	0.64
CN(CC(=O)Nc1ccc(C(F)(F)F)cc1)S(=O)(=O)c1cccs1
 : -0.25	0.57
O=C(NCCc1c[nH]c2ccccc12)c1cc2c(s1)-c1ccccc1OC2
 : -0.1	75
Cc1nc2cc(C(=O)NCc3ccccn3)ccc2n1-c1ccc(Br)cc1
 : .	0.03

Structural class: the compounds so far containing a nitro group on carbon (3)
Values in the order – AID504770	Ba CapD inh
C=CCOC(=O)C1=C(C)NC(C)=C(C(=O)OCC=C)C1c1cn(-c2ccccc2)nc1-c1ccc([N+](=O)[O-])cc1
 : .	-0.78
Cc1ccccc1CCOC(=O)NNC(=O)Cn1nnc(-c2cccc([N+](=O)[O-])c2)n1
 : .	-0.42
CC1(C)CC(=O)C2=C(C1)OC(N)=C(C#N)C2c1ccc(N2CCOCC2)c([N+](=O)[O-])c1 (stereo not given)
 : .	-0.54

Following part:
Values in the order – AID504770	Ba CapD inh
Cc1noc(C)c1C(=O)NC12CC3CC(CC(C3)C1)C2
 : -0.5	.
CCN(CC)S(=O)(=O)c1ccc(Nc2c3c(nc4ccccc24)CCCC3)cc1
 : -0.05	0.18
CCOC(=O)c1c(C)n(-c2ccccc2)c2ccc(OC(=O)c3ccccc3[N+](=O)[O-])cc12
 : .	0.77
CC1(C)c2ccccc2-n2c1cc(O)c(-c1ccccc1)c2=O
 : .	6.4
CCOc1ccc2c(c1)C(=NNC(=O)c1ccccn1)c1cc(OCC)ccc1-2
 : .	1
COc1cccc(C2=NN3C(C2)c2cccc(OC)c2OC3c2ccc(F)c(F)c2)c1 (stereo not given)
 : .	-0.07
CC(=O)OC1c2ccccc2C(=O)N1Cc1ccccc1 (stereo not given)
 : -0.25	0.075
CC1CCCC(NC(=O)C2(C)CCC(=O)N2C(C)c2ccccc2)C1C (stereo not given)
 : -0.3	-0.95
O=C(O)c1cc(N2C(=O)C3C4C=CC(C4)C3C2=O)cc(N2C(=O)C3C4C=CC(C4)C3C2=O)c1 (stereo not given)
 : .	0.69
CCOC(=O)c1c(C)n(C)c2ccc(OC(=O)c3ccc(OC)cc3)cc12
 : -0.15	0.11
Cc1occc1C(=O)NN1CC(=O)N(C23CC4CC(CC(C4)C2)C3)C1=O
 : 1.4	.
CCOC(=O)c1cc(-c2ccco2)nn1-c1cccc(Cl)c1
 : 1.9	1.5
CCOC(=O)N1CCN(S(=O)(=O)c2cccc(S(C)(=O)=O)c2)CC1
 : 0.05	.
CNC(=S)N1CCN(c2ccccc2F)CC1
 : 0.65	.
COc1cccc2cc(-c3csc(N)n3)c(=O)oc12
 : 0.3	-0.39

Next structures follow.
Values in the order – AID504770	Ba CapD inh
CC1=C(C(=O)Nc2cccc(C(=O)NC(C)C)c2)SCCO1
 : -0.75	-0.14
O=C(O)C1CCCNC1 (stereo not given)
 : .	-1.8&-0.93
FC(F)(F)c1cc(C#CCN2CCOCC2)cc(C(F)(F)F)c1
 : -0.1	0.2
COC(=O)C1CCN(c2ncc(C(F)(F)F)cc2Cl)CC1
 : 2.2	0.33
CC(C)C(NC(=O)C1CCCCC1)C(=O)NCc1cccnc1 (stereo not given)
 : 1.6	0.01
CC1(C)OC(=O)C(=CNC(Cc2ccccc2)C(=O)O)C(=O)O1 (stereo not given)
 : 1.4	0.14
COc1ccc(-n2nc(C(=O)N3CCCc4ccccc43)c3ccccc3c2=O)cc1
 : 1.6	.
OC1(c2ccc(F)cc2)Cc2ccccc2C2=NCCN21 (stereo not given)
 : .	73
Cc1cc(C)n(-c2ncnc3c2cnn3-c2ccccc2)n1
 : 0.1	3.1
COc1ccc2c(Cl)c(-c3nnc4n3CCC4)sc2c1
 : 1.6	.
CCOc1ccc(CNC(=O)C2CCN(c3nc4ccccc4o3)CC2)cc1
 : -0.6	0.18
CC(=O)Nc1ccc(-c2nc3cc(C)ccc3o2)cc1
 : -0.3	133
CCCN1C2=C(C(=O)CCC2)C(c2ccc(F)cc2)C2=C1c1ccccc1C2=O (stereo not given)
 : -0.7	.
COc1cc(/C=C2\C(=O)NC(=S)N(c3ccccc3)C2=O)ccc1OCc1ccc(C(=O)O)cc1
 : .	0.07
Cc1ccccc1-c1nnn(CC(=O)NC2CCCCC2)n1
 : 1.3	-1.2

Rows are unselected; any-hit rate near 0.41%.
